Compound activity as filed in PubChem.
Arbovirus anti: antivirals against arbovirus infection, primary screen, cell-based, full library, 10K replicate subset. arbovirus infection cell-based antiviral screen. inhibition, % at 10 µM. 200,000 tested, 0.37% active;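 active = inhibition from about 30%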;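 also: bluetongue infection of BSR cells; cell survival read as ATP light after 72 h; 0% = infected wells without compound and 100% = uninfected wells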
Mtb betalactam: beta-lactam sensitization of Mtb H37Rv, H37Rv. M. tuberculosis H37Rv growth with meropenem, percent inhibition; hits of this screen are not shown here. inhibition, % at 25 µM. 330,000 tested, 0.27% active. AID 434955, 2010;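 active = about 74% or more and at least 40 points above the plate without the antibiotic, then above 30% in a dose series; inconclusive = first-round hits that could not be retested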;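 also: growth measured after seven days incubation then overnight dye step; 0% = bacteria only wells and 100% = bacteria with antibiotic; twin plates without the antibiotic show which effects depend on it; some results filed as inactive read as strong as hits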
RecA intein inh: Mtb RecA intein splicing inhibitors, primary screen, biochemical, fluorescence, HTS; Protein RecA (Mycobacterium tuberculosis (strain ATCC 25618 / H37Rv)), P9WHJ3; cell-free RecA intein splicing; inhibition, %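 (about 9 µM by stock and volumes)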; 290,000 tested, 0.75% active; AID 2221, 2009; in the data active = inhibition above about 30%; inconclusive = no clear call, values can overlap the other calls;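 also: 0% = vehicle wells and 100% = reference inhibitor control wells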
Target sequence (P9WHJ3 whole entry, looked up): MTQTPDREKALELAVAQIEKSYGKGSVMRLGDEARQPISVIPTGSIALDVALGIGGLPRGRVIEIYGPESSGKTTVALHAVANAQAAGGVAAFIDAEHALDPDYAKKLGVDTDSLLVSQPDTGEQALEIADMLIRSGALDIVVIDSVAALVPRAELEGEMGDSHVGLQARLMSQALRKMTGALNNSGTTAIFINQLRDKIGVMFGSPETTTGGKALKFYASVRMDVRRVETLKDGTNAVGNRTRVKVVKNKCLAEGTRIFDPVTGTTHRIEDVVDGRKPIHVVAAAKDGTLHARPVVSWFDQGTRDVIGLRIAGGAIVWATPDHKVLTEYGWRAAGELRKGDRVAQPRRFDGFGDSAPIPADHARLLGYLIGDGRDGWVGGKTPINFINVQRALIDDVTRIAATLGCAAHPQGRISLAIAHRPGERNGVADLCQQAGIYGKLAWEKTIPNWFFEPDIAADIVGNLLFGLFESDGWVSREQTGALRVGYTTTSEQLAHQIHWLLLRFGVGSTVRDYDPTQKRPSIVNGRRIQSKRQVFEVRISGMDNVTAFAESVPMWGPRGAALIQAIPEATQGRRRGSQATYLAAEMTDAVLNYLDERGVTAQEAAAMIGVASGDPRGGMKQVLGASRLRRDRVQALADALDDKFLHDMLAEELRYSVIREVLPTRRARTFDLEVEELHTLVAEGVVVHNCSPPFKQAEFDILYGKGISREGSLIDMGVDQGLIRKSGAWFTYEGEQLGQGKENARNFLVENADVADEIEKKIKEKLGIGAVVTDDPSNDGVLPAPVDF
Mtb growth: M. tuberculosis H37Rv growth inhibitors, H37Rv strain (AID 1626). M. tuberculosis H37Rv growth inhibition; higher % means a stronger effect. inhibition, % at 10 µM, or IC50 in µM where a hit was titrated. 220,000 tested, 0.95% active;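 active = confirmed in a dose series; inconclusive = inhibition above 80% but not taken into the dose series; inactive = below 80% or under 30% at every dose of the series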;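 also: bacteria incubated seven days before Alamar blue readout; 0% = bacteria only wells and 100% = bacteria with antibiotic wells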
YopH inh: YopH tyrosine phosphatase inhibitors, primary screen, biochemical, fluorescence Ex485/Em525; YopH tyrosine phosphatase [Yersinia enterocolitica]; AID 898, 2007; inhibition, %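 (about 10 µM by stock and volumes)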; 140,000 tested, 0.16% active;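 active = inhibition of 50% or more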;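 also: controls were vehicle for no effect and minimum signal wells for full effect; inactives centre near -20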
Arbovirus anti repeat: also measured in Arbovirus anti; calls as there; inhibition, %; measured here: 10K subset replicate screen; many hits read low in the repeat;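 first of two repeat runs on a subset; 0% = infected and 100% = uninfected wells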
Active calls of the source: *; u = inconclusive; x = not tested or not shown. The list is partial. The share of hits here may be higher or lower than overall.

SMILES	Arbovirus anti	Mtb betalactam	RecA intein inh	Mtb growth	YopH inh	others
COC(=O)CN1C(=O)N/C(=C/c2ccc(OC)c(C)c2OC)C1=O	-1	1	-0.3	-4%	x
Clc1cccc(Cl)c1CSc1nnc2ccccn12	16	2	3.1	6%	1
CC(C)CNC(=O)c1cccc(NC(=O)c2ccccc2-c2ccccc2C(=O)O)c1	x	-3	-1.9	x	x
CCC(C)[C@H](NC(=O)NCc1ccc(Cl)cc1)C(=O)OC (some centres undefined)	4	-6	-1.2	-1%	-8
O=C(NC(NC(=S)Nc1c(Cl)cc(Cl)cc1Cl)C(Cl)(Cl)Cl)OCc1ccccc1 (centres undefined)	3	0	14	21%	-45
Cn1nnnc1SCc1cccc2ccccc12	1	-6	0.8	-7%	x
O=c1[nH]cnc2onc(-c3ccc(F)cc3)c12	x	2	-1.1	x	x
C#CCNC(=O)C1=C[C@@H](c2cn(C(C)=O)c3ccccc23)C[C@@H](OCc2ccc(CO)cc2)O1	-6	12	2.9	2%	x
COc1ccc(C2=Nn3c(nnc3C(F)(F)F)SC2)cc1	x	8	1.2	x	x
CC1(C)CC(=O)c2cc(OCC(=O)N3CCN(Cc4ccccc4)CC3)ccc2O1	-3	-13	-10	2%	x
CC(=O)Nc1ccc(Nc2cc(C)nc3c(-c4ccccc4)c(C)nn23)cc1	-2	99	-17	>100µM*	-35
NC(=O)c1c(NC(=S)Nc2ccccc2)sc2c1CCCC2	7	1	-0.9	0%	x
CN1C[C@@H]2C(c3ccccc3)C3(c4ccc(C#N)cc4)CC2(C3)[C@H]1c1ccccc1 (some centres undefined)	x	-8	8.8	7%	x
O=C(O)c1cc(NN=C2CCN(Cc3ccccc3)CC2)ccc1Cl	x	-1	-2.8	-10%	x
Cn1c(/C=N/NC(=O)c2ccccc2)nc2ccccc21	-20	93	-0.5	52%	-12
Cc1ccc2[nH]c(C(=O)N/N=C/c3ccccc3O)c(C)c2c1	x	13	-1.6	x	x
CC(C(=O)Nc1ccc2c(c1)OCO2)N(c1ccc(Cl)cc1)S(C)(=O)=O (centres undefined)	15	-5	0.7	-13%	-13
CCN(CC)N=Nc1cccc(NC(C)=O)c1	-14	-9	-2.5	-6%	x
N#C/C(=C\c1ccc(Cl)cc1)c1nc2ccccc2o1	-9	-4	9.3	-3%	-7
COc1cccc(C(C(=O)NC2CCCCC2)N(C(=O)c2ccco2)c2ccc(-n3cnnn3)c(C)c2)c1 (centres undefined)	4	-3	-1.0	-13%	-25

Of the compounds above, these contain nitrogen in an aromatic ring.
SMILES	Arbovirus anti	Mtb betalactam	RecA intein inh	Mtb growth	YopH inh	others
Clc1cccc(Cl)c1CSc1nnc2ccccn12	16	2	3.1	6%	1
Cn1nnnc1SCc1cccc2ccccc12	1	-6	0.8	-7%	x
O=c1[nH]cnc2onc(-c3ccc(F)cc3)c12	x	2	-1.1	x	x
C#CCNC(=O)C1=C[C@@H](c2cn(C(C)=O)c3ccccc23)C[C@@H](OCc2ccc(CO)cc2)O1	-6	12	2.9	2%	x
COc1ccc(C2=Nn3c(nnc3C(F)(F)F)SC2)cc1	x	8	1.2	x	x
CC(=O)Nc1ccc(Nc2cc(C)nc3c(-c4ccccc4)c(C)nn23)cc1	-2	99	-17	>100µM*	-35
Cn1c(/C=N/NC(=O)c2ccccc2)nc2ccccc21	-20	93	-0.5	52%	-12
Cc1ccc2[nH]c(C(=O)N/N=C/c3ccccc3O)c(C)c2c1	x	13	-1.6	x	x
N#C/C(=C\c1ccc(Cl)cc1)c1nc2ccccc2o1	-9	-4	9.3	-3%	-7
COc1cccc(C(C(=O)NC2CCCCC2)N(C(=O)c2ccco2)c2ccc(-n3cnnn3)c(C)c2)c1 (centres undefined)	4	-3	-1.0	-13%	-25

Carrying on.
SMILES	Arbovirus anti	Mtb betalactam	RecA intein inh	Mtb growth	YopH inh	others
N#CC1=C(N)C(C#N)(C#N)[C@H](c2ccncc2)[C@H]2CN(C(=O)OCc3ccccc3)CC=C12	6	x	6.5	1%	-18
CC(C)OC(=O)c1ccc(OC(=O)c2cccnc2)cc1	0	69	12	13%	29	Arbovirus anti repeat=3
O=C(Cc1c(F)cccc1Cl)Nc1ccccn1	x	5	-1.1	x	x
COc1ccccc1N1CCN(C(=O)CCc2ccc(S(=O)(=O)NC(C)C)cc2)CC1	6	-7	-0.3	1%	-44	Arbovirus anti repeat=4
S=c1[nH]nc(-c2ccco2)n1Cc1ccccc1	2	-13	x	1%	-23
O=C1NN(c2ccc(F)c(Cl)c2)C(=O)/C1=C\c1cccc(OC(=O)c2cccs2)c1	-24	99	22	u	-4
CC(C)(C)C1CCC(=NNC(=S)NCc2ccccc2)CC1 (centres undefined)	-2	100	0.8	1%	x
O=c1cc(-c2ccccc2)nc(SCc2ccccc2F)[nH]1	0	0	-1.5	1%	x
COc1cc(C(C)=O)ccc1COc1ccc(C(=O)OCC(N)=O)cc1OC	-3	-9	4.5	5%	-18
CC(=O)c1cccc(NC(=S)NC(=O)Cc2ccc(Cl)cc2)c1	x	8	0.6	x	x
CCc1c(C)nc2cc(-c3cc(OC)cc(OC)c3)nn2c1N1CCCC1	-33	98	14	68%	-27
CC(=O)Nc1ccc(NS(=O)(=O)c2ccc3c(c2)NC(=O)CC(=O)N3)cc1	x	-3	-1.1	x	x
Fc1ccc(C(OCCN2CCN(CCCc3ccccc3)CC2)c2ccc(F)cc2)cc1	x	100	10	4.2µM*	x
CCCOC(=O)c1cc(-c2ccc(C=O)o2)ccc1Cl	-4	31	1.9	7%	-41
CCOC(=O)COc1ccc(S(=O)(=O)Nc2ccc(C)cc2)cc1	-10	x	-0.2	76%	-27
COC1(NC(=O)c2ccccc2)C(C)=CC(=O)C=C1C	-3	0	-2.0	4%	x
Nc1ccc(-c2cc3ccccc3oc2=O)cc1	x	2	-3.9	x	x
COc1ccc(CCNC(=O)CSc2nc3[nH]ncc3c(=O)n2-c2ccc(Br)cc2)cc1OC	6	-4	4.0	-3%	x
COc1ccc(S(=O)(=O)N2CC(=O)Nc3ccccc32)cc1	x	-7	-0.3	x	x
Cc1cc(C)nc(SCC(=O)Nc2sc3c(c2C#N)CCC(C)C3)n1 (centres undefined)	x	-2	x	1%	93*
Cc1ccc(S(=O)(=O)Nc2ccc(N3CCOCC3)cc2)cc1[N+](=O)[O-]	3	1	0.8	-4%	x
COc1cc2nc(SCc3c(C)noc3C)n(CCC3=CCCCC3)c(=O)c2cc1OC	-13	-8	3.5	-7%	-11
Cc1cc(-c2ccccc2)n2nc(C)c(C#N)c2n1	6	-6	1.1	-5%	-2
Cc1cccc(NC(=O)C2(c3cccs3)CCOCC2)c1	4	-4	-0.3	8%	-11
N#Cc1ccc(-c2cccnc2)nc1SCC(=O)Nc1sc2c(c1C#N)CCC2	-4	-4	x	-6%	-26
Cc1ccc(NC(=O)Nc2ccc3c(c2)OCO3)cc1F	x	-3	-2.2	x	x
O=C(c1ccc(Cl)cc1Cl)N1CCN(c2ccccn2)CC1	x	-6	-0.9	x	x
CC(NCc1ccc2c(c1)OCO2)C(=O)NC1CCCc2ccccc21 (centres undefined)	0	-3	-0.1	1%	2
C#Cc1ccc([C@H]2C=C(C(=O)NCc3nc4ccccc4[nH]3)O[C@@H](OCC)[C@@H]2CCCO)cc1	x	-2	6.3	5%	x
CCOC(=O)CN1C(=O)c2ccccc2C1=O	0	-13	-0.7	-4%	-15
O=C(O)CN(c1ccccn1)S(=O)(=O)c1ccccc1	1	-1	-0.4	-2%	6
COc1ccccc1NC(=O)COc1ccccc1C(=O)c1cnn(-c2ccccc2)c1	15	6	9.3	5%	-48
Cc1ccc(-c2cc(C(=O)N3CCC4(CC3)OCCO4)no2)cc1	-3	-8	-0.6	8%	x
COc1ccc(NC(=O)N2CCCCC2)cc1	-4	11	-1.6	-8%	-6
COc1cc(/C=C/C(=O)OCc2c(C)noc2C)ccc1OC(F)F	9	8	0.8	7%	x
CN(c1ccccc1C(=O)Nc1ccc2ccccc2c1)S(C)(=O)=O	x	8	0.2	x	x
CCCC(OC(=O)CC1Sc2ccccc2NC1=O)C(=O)NCc1ccco1 (centres undefined)	2	-4	5.2	-8%	-75
C/C(=C\c1ccc(N)cc1)c1nc2ccccc2[nH]1	x	-5	-1.1	x	x
CN(Cc1ccno1)Cc1cn(C)nc1-c1ccc(Oc2ccccc2)cc1	-9	-2	-10	6%	x
[O-][n+]1ccccc1/C=C/c1ccccc1	x	-8	3.8	x	x
CC(C)N1C(=O)C2ON(c3ccccc3)C(c3cccs3)C2C1=O (centres undefined)	-5	0	2.7	0%	-8
COc1ccc(-c2oc3ccccc3c2C(=O)OCc2ccc([N+](=O)[O-])cc2)cc1	x	3	0.5	x	x
Cc1cccc(CCNC(=O)CC2C(=O)NCCN2CC2CCCCC2)n1 (centres undefined)	3	-1	-0.7	8%	x
CCCCCn1nc(C(=O)N(CCOC)c2c(N)n(CCCC)c(=O)[nH]c2=O)c2ccccc2c1=O	x	0	-4.3	x	x
Cc1cnc(CN(C)C(=O)C2CCC(=O)N(CCc3cccc(F)c3)C2)[nH]1 (centres undefined)	x	2	-0.1	x	x
Cn1/c(=N/NC(=O)c2ccccc2Br)sc2ccccc21	-1	-6	-2.2	2%	x
CCOC(=O)c1cnn(-c2ccccc2)c1-n1cccc1C(=O)C(=O)Nc1ccc(OC)cc1	19	0	-1.0	1%	-29
CC1CCCC(NC(=O)c2cccc(S(=O)(=O)N3CCN(c4ccccc4)CC3)c2)C1C (centres undefined)	x	-11	-0.6	x	x
CC(=O)c1ccc(NC(=O)CCSCCC(=O)Nc2ccc(C(C)=O)cc2)cc1	2	-6	-0.4	-8%	-1
CCOC(=O)C1=C(C)NC(=O)NC1c1ccc([N+](=O)[O-])o1 (centres undefined)	x	5	-8.8	1%	x
Cc1cc2nc(/C=C/c3nc4cc(C)c(C)cc4[nH]3)[nH]c2cc1C	x	4	-12	-9%	x
O=C(Nc1cc(S(=O)(=O)Nc2ccc(Cl)cc2)ccc1N1CCCCC1)c1ccc(F)cc1	10	5	1.4	-1%	-21
CCOC(=O)c1c(NC(=O)CS(=O)(=O)c2cn(CC)c3ccccc23)sc2c1CCCCC2	6	9	-1.1	7%	15
COC(=O)CNC(c1ccccc1)c1cc(Br)ccc1NS(=O)(=O)c1ccccc1 (centres undefined)	-3	0	5.5	2%	-10
Cc1ccccc1CN(C)C(=O)CNC(=O)c1ccc2ccccc2c1	x	1	2.6	x	x
Cc1nc2ccccc2n1S(=O)(=O)N(C)C	13	2	0.7	-8%	-44
CCOC(=O)C1CCN(C(=O)CCS(=O)(=O)c2ccc3c(c2)CC(C)N3C(=O)CC)CC1 (centres undefined)	7	4	1.0	-8%	x
CCn1c(C(C)NC(=O)c2ccc(C)cc2)n[nH]c1=S (centres undefined)	1	-2	-2.1	-5%	-41
CC(C)NC(=O)C(=O)Nc1cc2c3c(c1)C(C)C(=O)N3CCC2 (centres undefined)	x	-4	2.0	x	x
CCOc1cc2nc(-c3ccc(OC)c(OC)c3)nc(N3CC(C)OC(C)C3)c2cc1OC (centres undefined)	-1	-8	0.4	x	-12
The listing continues:
SMILES	Arbovirus anti	Mtb betalactam	RecA intein inh	Mtb growth	YopH inh	others
COc1cc(NS(=O)(=O)c2ccc(NC(=O)CSC3=NCCS3)cc2)nc(OC)n1	6	2	8.6	x	-13
C/C(CC(=O)NCc1ccco1)=N\NC(=O)C(c1ccccc1)c1ccccc1	-1	-20	1.9	1%	-17
COc1c(C)cc(C(=O)C2CCCN(C(=O)Cn3ccc(C)n3)C2)cc1C (centres undefined)	-4	-2	-1.8	-15%	x
CC1(C)CC(=O)C=C(NCc2ccc(C(=O)O)cc2)C1	x	-8	-1.2	-7%	x
Cc1sc(NC(=O)c2cccnc2)nc1-c1ccccc1	-6	-1	18	0%	x
CC(Sc1nc(N)c(NC(=O)c2ccc(Br)o2)c(=O)[nH]1)C(=O)O (centres undefined)	x	-10	0.8	x	x
COc1ccc(S(=O)(=O)N2CCC(C(=O)Nc3nccs3)CC2)cc1	x	-21	-1.2	x	x
Cn1c(=O)c2c(nc(Br)n2CCSc2nc3ccccc3o2)n(C)c1=O	12	-3	x	x	-33
CCc1nccn1CCC(=O)N1CCCC(N2CCN(c3ccccc3F)CC2)C1 (centres undefined)	x	-5	1.5	x	x
COc1ccc(-c2csc3[nH]c(=S)n(-c4ccccc4)c(=O)c23)cc1OC	-7	0	-0.2	1%	-4
CCOC(=O)CSc1nnc(CNC(=O)c2cccc(C)c2)n1C	5	-9	1.1	2%	x
N#C/C(=C\c1ccccc1)C(=O)NCCN1CCOCC1	0	-1	0.9	6%	x
